Mtb hypoxia rep: PubChem AID 1159583. 300,000 tested, 0.1% active. M. tuberculosis hypoxia-regulated fluorescent reporter, fluorescence. fluorescence inhibition, % (no concentration beside the values);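 active = 35 to 45% if threefold the growth effect, above 45% if 1.5-fold the growth effect; inactive = the rest, general growth blockers included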;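 note: wells of about 50 µL received 100 nL stock; 0% = vehicle wells and 100% = reference inhibitor wells; whole bacteria with a GFP reporter of the hypoxia response; strong numbers were not always called active; many hits fall short of the cut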
BJeLR lethal: MLPCN primary cell-based screen for lethality selective to Ras in HRASV12 cells | BJeLR (HRASV12) viability, CellTiter-Glo ATP luminescence, 48 h; reference of the scale not given here | inhibition, % (concentration not given with the values) | 300,000 tested, 0.17% active | AID 1554, 2009;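 active = replicate mean above 50%; inconclusive = above 50% but judged a plate artefact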;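 note: 50 nL library stock added to about 25 µL; numbers are from one replicate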
Sa ugtP lethal: growth inhibition of ugtP-null S. aureus, primary screen, RN4220 ugtP deletion, OD600 | 16 h; some inactives read as strong as hits | growth inhibition, % (test concentration not listed) | 330,000 tested, 0.54% active | AID 1259309, 2017;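 active = z-score under -3 and OD600 up to 0.15 on both plates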;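 note: plate controls were untreated wells for no effect and antibiotic for full effect; wells of about 80 µL received 100 nL stock; the first replicate is given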
Sa RN4220 lethal: growth inhibition of S. aureus RN4220, primary screen, OD600 | 330,000 tested, 0.33% active | AID 1259311, 2017 | inhibition, % (no concentration beside the values) | 16 h;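 active = z-score of -3 or lower and OD600 up to 0.18 on both plates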;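 note: plate controls were untreated cells for no effect and reference antibiotic for full effect; stock transfer was 100 nL into about 80 µL; one replicate is shown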
PrP 5UTR inh: inhibition of PrP 5' UTR reporter expression | inhibition, % (concentration not given with the values) | 340,000 tested, 0.35% active | cell-based PrP 5' UTR mRNA reporter, plate reader;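 active = every replicate at 50% or more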;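 note: 0 = median of the neutral control wells; tested in H4 reporter cells; numbers are from one replicate; inactives centre near -14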
Autofluor counter: compound fluorescence in toxin protease inhibitor counterscreen; fluorescence intensity (concentration not given with the values); 360,000 tested, 3.1% active; AID 624483; compound autofluorescence counterscreen, microsphere flow cytometry; stronger effect = higher value;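 active = at least 3 SD above the mean of all compounds, about 16000 in these data; inconclusive = too few beads counted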;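 note: 100 nL of 1 mM stock went into each well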
Mtb hypoxia rep growth: also measured in Mtb hypoxia rep; calls as there; growth inhibition, %; measured here: M. tuberculosis growth (absorbance);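 0% = vehicle and 100% = reference antibiotic; read after six days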
* marks the source's active call; other numbers are inactive results; ? = inconclusive; . = not tested or not shown. Compounds as they come; 4% or so of the library scored in one or more.

SMILES | Mtb hypoxia rep | Mtb hypoxia rep growth | BJeLR lethal | Sa ugtP lethal | Sa RN4220 lethal | PrP 5UTR inh | Autofluor counter
Cc1cc(N)n(-c2ccc(S(=O)(=O)c3ccc(C(C)C)cc3)cc2)n1 | 9 | 0 | 6 | 12 | 7.9 | -22 | 4143
O=C1N=C(N2CCN(Cc3ccccc3)CC2)S/C1=C/c1cccs1 | 0 | 2 | -2 | 10 | 0.5 | -10 | 5444
CN(C)CCNC(=O)C(=O)NCC1CCCN1S(=O)(=O)c1cccs1 (stereo not drawn) | -4 | 7 | -1 | 1 | 1.9 | 2 | .
COCCCN(Cc1cccs1)S(=O)(=O)c1csc(C(N)=O)c1 | -6 | -7 | 3 | 6 | 3.7 | -15 | 5625
CCOc1ccc(CNC(=O)CCC(=O)N2Cc3ccccc3Oc3ncccc32)cc1 | 16 | 10 | -6 | 11 | -0.9 | -15 | 4716
CC(C)=CCC/C(C)=C/CNC(=O)CC1C[C@H](C(=O)N(C(C)C)C(C)C)[C@@]2(C)c3[nH]c4ccccc4c3CCN2C1=O (stereo partly drawn) | -9 | -2 | . | -3 | 0.6 | 0 | 4105
Cc1nc(=O)c(-c2ccccc2)c(C)n1-c1cccc(C(=O)O)c1 | . | . | -1 | 10 | -0.2 | -40 | 2801
CCN(CC)C(=O)OCc1c(-c2cccc(OC)c2)ncc2ccccc12 | 19 | 8 | . | 3 | 3.0 | -16 | 4250
O=C(COC(=O)c1ccc(S(=O)(=O)NCc2ccco2)cc1)Nc1ccccc1 | 5 | 3 | . | -2 | 6.3 | -26 | 6707
COc1ccc(N(C)C(=O)Nc2ccc3c(c2)nnn3C)cc1 | 6 | 9 | 3 | 0 | 1.8 | -9 | 8231
CCOc1ccc(S(=O)(=O)NCCCn2ccnc2)cc1NC(C)=O | -1 | -10 | 0 | 1 | 0.6 | -43 | 4392
Cc1ccc(-c2nc(C#N)c(NCC3CCCO3)o2)cc1 (stereo not drawn) | 0 | 3 | 5 | 2 | 7.5 | -65 | 4298
CCN(CC)C(=O)C(C)N(C#N)c1nc(SC)nc(N(C)C)n1 (stereo not drawn) | 1 | -2 | -7 | 3 | 1.3 | -10 | 11935
CCC(CC)c1nnc(NC(=O)c2ccc3ccccc3n2)s1 | . | . | 11 | 14 | 5.2 | -96 | 2983
C[N+]1(C)CC2=Cc3ccccc3CC2C1 (stereo not drawn) | 2 | -8 | 8 | 17 | 6.9 | -9 | 3562
CN1CCN(c2ccc(S(=O)(=O)Nc3ccccc3)cc2[N+](=O)[O-])CC1 | -15 | 3 | 13 | -2 | 0.5 | -33 | 2603
COC(=O)c1cc(CSC(=N)N)ccc1OCCC(C)C | -3 | 2 | -10 | 8 | 2.5 | -36 | 3519
COc1ccccc1/C=C/C(=O)N1CCN(S(=O)(=O)c2cc(C)ccc2C)CC1 | 6 | 17 | . | -6 | -4.8 | -20 | 8255
CC(=O)N1CCN(S(=O)(=O)c2ccc(S(=O)(=O)NCC(C)C)cc2)CC1 | -1 | -2 | 3 | 7 | 4.3 | -1 | ?
O=C(C(=O)N1CCc2ccccc2C1)c1cn(CC(=O)N2CCCCC2)c2ccccc12 | 3 | 6 | 4 | 0 | 4.9 | 1 | 6697

Next section (three carried over from the part before).
SMILES | Mtb hypoxia rep | Mtb hypoxia rep growth | BJeLR lethal | Sa ugtP lethal | Sa RN4220 lethal | PrP 5UTR inh | Autofluor counter
COc1ccccc1/C=C/C(=O)N1CCN(S(=O)(=O)c2cc(C)ccc2C)CC1 | 6 | 17 | . | -6 | -4.8 | -20 | 8255
CC(=O)N1CCN(S(=O)(=O)c2ccc(S(=O)(=O)NCC(C)C)cc2)CC1 | -1 | -2 | 3 | 7 | 4.3 | -1 | ?
O=C(C(=O)N1CCc2ccccc2C1)c1cn(CC(=O)N2CCCCC2)c2ccccc12 | 3 | 6 | 4 | 0 | 4.9 | 1 | 6697
COc1cc(NC(=O)CN(C)Cc2ccc(OC(F)F)cc2)c(C)cc1[N+](=O)[O-] | -6 | 16 | -1 | -12 | -5.6 | -23 | 2606
CC(=O)NC(c1cc(F)c2cccnc2c1O)C1CC1 (stereo not drawn) | 21 | 12 | . | 5 | 2.9 | -17 | 3329
CC(=O)N[C@H]1[C@H](OC2CCCCC2)O[C@H](COC(C)=O)[C@@H](OC(C)=O)[C@@H]1OC(C)=O | -13 | -1 | -7 | -9 | 5.0 | -7 | 3733
CCOc1nc2cnccc2n(CC(=O)Nc2c(F)c(F)cc(F)c2F)c1=O | -2 | 5 | 0 | 0 | 0.8 | -18 | 5595
COc1cc2nc(C3CCC3)n(N)c(=O)c2cc1OC | -12 | 4 | 6 | -5 | -3.9 | 16 | 4209
COc1cc(NC(=O)CSc2nnc3c(C)cc4cc(C)cc(C)c4n23)c(C(=O)O)cc1OC | -4 | 7 | -2 | 2 | 0.0 | -20 | 2675
O=C(CCNC(=O)c1ccccc1)OCC(=O)c1ccccc1 | 7 | 7 | 2 | 5 | 5.2 | 42 | 4209
CC1CCCN(C(=O)COC(=O)c2cc(-c3cccs3)nn2-c2ccccc2)C1 (stereo not drawn) | -10 | -9 | 1 | -10 | -4.6 | -16 | 4425
COc1ccccc1OCCCn1c(=O)oc2ccc(C)cc21 | 7 | 3 | 2 | -3 | 3.9 | -3 | 2995
COc1cc(C(=O)OCC(=O)NC(C)CCc2ccccc2)cc(OC)c1OC (stereo not drawn) | -11 | 9 | -12 | 3 | -0.2 | -10 | 3417
CCOC(=O)CN1C(=O)/C(=C/c2ccccc2Br)Oc2ccccc21 | 6 | 6 | 1 | 4 | 2.1 | -21 | 3106
Cn1c(=O)[nH]c(Nc2ccc(F)cc2)c([N+](=O)[O-])c1=O | 0 | -2 | -11 | 11 | 6.2 | -16 | 2536
COc1cc(S(=O)(=O)Nc2cccc3cn[nH]c23)c(OC)cc1Cl | 15 | 3 | 3 | -3 | 5.3 | -9 | 6284
COc1cccc(OC)c1OCCCOc1ccc([N+](=O)[O-])cc1Cl | . | . | -1 | -3 | 16 | -7 | 2139
CCOc1ncccc1C(=O)Nc1ccc2c(c1)OCCCO2 | 7 | 3 | . | 1 | 6.4 | -21 | 4730
c1ccc2[nH]c(CCCc3nc4ccccc4[nH]3)nc2c1 | -7 | 6 | -7 | 2 | 0.2 | -10 | 3984
Nc1nc(Nc2ccccc2)nc(NC2CCCCC2)c1[N+](=O)[O-] | 6 | 4 | 1 | 48 | -16 | -8 | 3179
COc1cccc2c1C(CCCC(=O)O)CCC2 (stereo not drawn) | 15 | 8 | . | 3 | 4.4 | -18 | 2900
COc1ccc(C=NNc2ccc(C(=O)O)cc2)cc1OC | 16 | 10 | . | -2 | -1.0 | . | .
Cn1cc(Br)c(C(=O)NC(=S)N2CCN(c3ccccn3)CC2)n1 | -6 | -10 | 11 | 1 | 3.2 | -12 | 9840

3 of these compounds in another layout.
COc1cc(S(=O)(=O)Nc2cccc3cn[nH]c23)c(OC)cc1Cl
  Mtb hypoxia rep: 15	Mtb hypoxia rep growth: 3	BJeLR lethal: 3	Sa ugtP lethal: -3	Sa RN4220 lethal: 5.3	PrP 5UTR inh: -9	Autofluor counter: 6284

COc1cccc(OC)c1OCCCOc1ccc([N+](=O)[O-])cc1Cl
  Mtb hypoxia rep: .	Mtb hypoxia rep growth: .	BJeLR lethal: -1	Sa ugtP lethal: -3	Sa RN4220 lethal: 16	PrP 5UTR inh: -7	Autofluor counter: 2139

CCOc1ncccc1C(=O)Nc1ccc2c(c1)OCCCO2
  Mtb hypoxia rep: 7	Mtb hypoxia rep growth: 3	BJeLR lethal: .	Sa ugtP lethal: 1	Sa RN4220 lethal: 6.4	PrP 5UTR inh: -21	Autofluor counter: 4730

Additional structures follow.
SMILES | Mtb hypoxia rep | Mtb hypoxia rep growth | BJeLR lethal | Sa ugtP lethal | Sa RN4220 lethal | PrP 5UTR inh | Autofluor counter
CCOc1ccccc1NC(=O)CCNC(=O)c1ccco1 | -8 | 9 | 7 | -3 | -4.8 | -25 | 5085
CC(Cl)c1cc(-c2ncc(C(F)(F)F)cc2Cl)no1 (stereo not drawn) | 7 | 2 | -6 | 11 | 5.3 | -7 | 2127
COc1cccc(CN(C)C(=O)c2cc(COc3ccc4ncccc4c3)on2)c1 | 7 | 13 | 3 | 11 | 7.5 | -15 | 4043
COc1ccc(OC)c(C2C(C(C)=O)=C(O)C(=O)N2CCc2ccc(OC)c(OC)c2)c1 (stereo not drawn) | 13 | 5 | -14 | 2 | 0.4 | 5 | 3861
NC(=O)c1ccc(NC(=O)CN2CCN(c3ccc(Cl)cc3)CC2)cc1 | 15 | 5 | -1 | 11 | 2.5 | -24 | 1972
C=CCn1c(N)cc(=O)nc1SCC(=O)NC(C)c1ccccc1 (stereo not drawn) | 2 | -9 | -4 | 0 | 4.6 | -4 | 10949
O=C(O)C1CC=CCC1C(=O)NCCCN1CCCC1=O (stereo not drawn) | 0 | 2 | -4 | 1 | 0.8 | -8 | 4555
CCOCCc1nnc(NC(=O)CCS(=O)(=O)c2ccccc2)s1 | 10 | 17 | 7 | 0 | 2.5 | -21 | 4083
COc1ccc(N2CCN(C(=O)CN3C(=O)NC4(CCCc5ccccc54)C3=O)CC2)cc1 (stereo not drawn) | 5 | 3 | 3 | 2 | 2.8 | -13 | 4878
COC(=O)CSc1nnc2n(-c3ccc(OC)cc3)c(=O)c3c4c(sc3n12)CCCCC4 | . | . | 8 | 0 | 1.8 | -41 | 4800
CCOc1cc(/C=C2\N=C3CCCCCN3C2=O)ccc1O | 0 | 9 | 3 | -12 | 0.8 | -14 | 4532
COc1ccc(NC(=O)c2ccc(S(=O)(=O)N3CC(C)CC(C)C3)cc2)cc1S(N)(=O)=O (stereo not drawn) | 12 | -1 | . | 0 | 6.0 | -9 | 3558
COc1ccc(N=C2C(=Nc3ccc(OC)cc3)N(c3ccc(OC)cc3)C(=S)N2C)cc1 | 9 | -3 | 8 | 22 | 0.3 | -4 | 4518
CCN(CC)CCNc1nc2nonc2nc1NCCN(CC)CC | -6 | -10 | 9 | -9 | 11 | -10 | 5419
CC(=O)N1C(=O)C2(C(C#N)=C(N)Oc3cc(C)oc(=O)c32)c2ccccc21 (stereo not drawn) | 8 | 6 | -13 | 4 | 2.1 | -26 | 4314
COc1ccc2c(c1)c(C(=O)CN1CCOCC1)c(C)n2C | 16 | 8 | -2 | 3 | 3.8 | -5 | 4237
Cc1cc(=O)oc(C)c1C(=O)OCC(=O)c1ccc2ccccc2c1 | 6 | 9 | -5 | 1 | 14 | -1 | 4206
COc1cccc(CC(NC(C)=O)C(=O)NC2CCN(c3nc(C)cc(C)c3C#N)CC2)c1 (stereo not drawn) | . | . | 0 | 7 | 0.1 | -27 | 2736
Cc1ccc(S(=O)(=O)N(OCc2ccccc2)C(C)C(=O)O)cc1 (stereo not drawn) | 8 | 2 | 0 | -3 | 24 | . | 5806
Cc1ccc(Cn2nnc(C(=O)Nc3cc(C)ccc3C)c2N)cc1 | -7 | -12 | -12 | 8 | -0.6 | -7 | 9938
CC(C)NC(=O)c1ccc(-c2cc(C(F)(F)F)ccc2Cl)o1 | 6 | 6 | 1 | 0 | -1.7 | -2 | 22154*
O=C(Nc1ccc2c(c1)OCO2)c1ccc(Br)o1 | 10 | 7 | -1 | -3 | 8.4 | -80 | 4546
CN(C(=O)CSc1ncnc2ccccc12)C1CCCCC1 | 10 | 11 | . | 2 | 2.0 | -79 | 5422
COc1ccc(-c2noc(CCCC(=O)N3CCN(c4cc(C)ccc4C)CC3)n2)cc1 | -9 | 9 | . | 11 | 6.3 | -49 | 3787
CC(=O)NCC(=O)N1CCC(n2nccc2NC(=O)CCCc2ccccc2)CC1 | 11 | 11 | -7 | 6 | -0.3 | -3 | 6404
Cc1nnc2n(c1=O)C(CS(=O)(=O)c1ccccc1)CS2 (stereo not drawn) | 3 | 0 | 5 | -2 | 3.0 | -6 | 21322*
CCOC(=O)c1c(C)[nH]c(C(=O)COC(=O)c2oc3ccc(OC)cc3c2C)c1C | 2 | 5 | 4 | 11 | 7.0 | -12 | 9827
N#Cc1cccc(C(=O)OCC(=O)N2CCCc3ccccc32)c1 | 7 | -1 | 0 | -1 | 0.8 | -9 | 3787
CCN(CC)S(=O)(=O)c1ccc(C(=O)Nc2c3c(nn2C(C)(C)C)CS(=O)(=O)C3)cc1 | 13 | 2 | 7 | -3 | 4.0 | -23 | 23143*
COC(=O)c1ccc(Oc2nc(Nc3ccccc3)nc(N(C)C)n2)cc1 | -2 | 12 | -5 | -23 | 6.7 | -28 | 20995*
O=C1CC(NNc2nc3ccccc3s2)C(=O)N1c1ccc(F)cc1 (stereo not drawn) | -10 | 6 | -16 | 0 | 1.3 | -34 | 5988
